High-throughput results deposited in PubChem by Fisher Drug Discovery Resource Center.
NPYLR7 ag: agonists of mosquito NPYLR7 receptor, primary screen, cell-based, Aedes aegypti, calcium fluorescence, mosquito biting behavior; Aedes aegypti neuropeptide Y-like receptor 7 (NPYLR7); HEK293T NPYLR7/Galpha15, GCaMP6s calcium fluorescence; activation, % at 10 µM; hit rate 0.15% among 270,000; in the data active means activation above about 40%;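 further: 0% = vehicle and 100% = reference agonist at the receptor; some compounds past the cut are filed as inactive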
NPYLR7 ag max-min: recorded beside NPYLR7 ag, whose call it bears; activation, %; measured here: Max-Min RFU normalised activation; some inactives read as strong as hits;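 span of the calcium signal over five minutes; 0% = vehicle and 100% = native peptide agonist; compound fluorescence can raise it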
* hit, by the source's call; & = joins results of further samples. An excerpt; the hit share may differ from the screen's.

The opening 5 entries, ahead of the listing:
SMILES	NPYLR7 ag	NPYLR7 ag max-min
CC(NC(=O)CC1Sc2ccccc2NC1=O)c1ccc(-c2ccccc2)cc1 (stereo unspecified)	3.9	43.9
O=C(NC1CCc2ccccc21)c1ccc(-c2ccc(C3CCCCC3)cc2)s1 (stereo unspecified)	16.6	10.0
COc1cn(CC(=O)Nc2ccccc2C(F)(F)F)c(CN2CCC(C)CC2)cc1=O	-1.1	-1.0
CSC(=Nc1ccc(Cl)cc1)N[n+]1ccccc1	1.9	7.2
CCOC(=O)C1=C(C)N=c2sc(=C(C)C)c(=O)n2C1c1ccc(OC)cc1 (stereo unspecified)	-0.2	6.8

Results (from the top)
SMILES	NPYLR7 ag	NPYLR7 ag max-min
CC(NC(=O)CC1Sc2ccccc2NC1=O)c1ccc(-c2ccccc2)cc1 (stereo unspecified)	3.9	43.9
O=C(NC1CCc2ccccc21)c1ccc(-c2ccc(C3CCCCC3)cc2)s1 (stereo unspecified)	16.6	10.0
COc1cn(CC(=O)Nc2ccccc2C(F)(F)F)c(CN2CCC(C)CC2)cc1=O	-1.1	-1.0
CSC(=Nc1ccc(Cl)cc1)N[n+]1ccccc1	1.9	7.2
CCOC(=O)C1=C(C)N=c2sc(=C(C)C)c(=O)n2C1c1ccc(OC)cc1 (stereo unspecified)	-0.2	6.8
COCc1cc(CNC(=O)c2cc(NC(C)=O)ccc2Cl)[nH]n1	3.8	0.4
CC(=O)Oc1c(-c2ccc(NC(=O)c3ccco3)cc2)c(-c2ccc3c(c2)OCO3)nn1-c1ccc(F)cc1	2.9	11.3
O=C(CSc1nnnn1-c1ccccc1)Nc1ccc2c(c1)OCCO2	-5.8	-6.5

The list goes on:
SMILES	NPYLR7 ag	NPYLR7 ag max-min
Cc1cc(C(F)(F)F)nn1CC(=O)Nc1cccc(F)c1C#N	-5.8	-10.4
CCNC(=O)N1CCC2(CC1)SCCN2C(=O)c1cccc([N+](=O)[O-])c1	-3.7	-0.7
CCn1c(-c2ccccc2F)nc2cc(C(=O)N3CC4CCC3C4)cc(NC(C)=O)c21 (stereo unspecified)	9.3	11.2
COC1=C(C(=O)N(C)Cc2ccccc2)N(c2c(C)cccc2C)S(=O)(=O)c2ccccc21	-0.1	4.4
COCc1c(Br)c(C)nc(OCC(=O)N/N=C\c2ccc(OC)c(Br)c2)c1C#N	12.0	21.1
Cn1cc(CN2CCC(OCc3cccnc3)CC2)c(-c2ccc(C3CCCCC3)cc2)n1	4.0	2.0
Cc1cc(S(=O)(=O)NCc2ccc3c(c2)OCO3)ccc1F	-1.1	-4.1
O=C(c1cnns1)N1CCCN(c2ncc(C(F)(F)F)cc2Cl)CC1	9.3	10.6

Later entries:
SMILES	NPYLR7 ag	NPYLR7 ag max-min
COc1ccc(NC(C)=O)cc1NC(C)C(=O)NC1CCCc2ccccc21 (stereo unspecified)	20.0	19.8
O=C1/C(=C\c2ccccn2)SC(=S)N1Cc1ccco1	3.4	0.5
CCCS(=O)(=O)N1CCCC(CCc2ccc(OC)cc2)C1 (stereo unspecified)	7.5	5.2
O=C(NC1CC1)[C@@]1(OCc2cccc(Cl)c2)CC(OCc2c(F)cccc2F)[C@H](O)[C@H](O)C1 (stereo partly specified)	10.0	17.5
COc1ccc(OC)c(C2c3[nH]c4ccccc4c3CCN2Cc2ccc(Cl)s2)c1 (stereo unspecified)	-0.1	-9.7
C=CCCC(=O)NCCS(=O)c1ccccc1 (stereo unspecified)	-0.3	-7.1
CCC(=O)N1CCC2(CC1)OCC(C(=O)N(C)Cc1ccccc1)N2C(=O)c1ccccc1 (stereo unspecified)	-0.3	5.2
CCOC1CCN(C(=O)CCSCc2ccc(F)cc2)CC1	0.6	-8.0

The list goes on:
SMILES	NPYLR7 ag	NPYLR7 ag max-min
NC(=O)c1cccc(NC(=O)CC(c2ccccc2)c2ccccc2)c1	-1.5	-3.4
C=CC[C@@H]1CC=C[C@@H](C)N1Cc1ccc(S(C)(=O)=O)cc1	16.4	11.7
CC(Cc1ccccn1)NC(=O)c1ccc(OC2CCN(CCc3ccccc3)CC2)cc1 (stereo unspecified)	9.0	4.5
CC1(NC(=O)NCC2CCCC2)CCCc2ccccc21 (stereo unspecified)	-5.3	-6.3
Cc1ccc(CN(Cc2ccc(F)cc2)C(=O)CN(CC2CCCO2)C(=O)C2CCC2)s1 (stereo unspecified)	5.2	7.4
CCc1cc(CN(C)C(=O)c2ccc3c(c2)no[n+]3[O-])on1	-4.6	-4.9
COCCCn1ccnc1-c1ccc(OC)c(C)c1C	2.2	2.2
COc1cccc(-c2cn[nH]c2C2CCN(C(=O)c3onc4ccccc34)CC2)c1	3.2	-5.6

Next section.
SMILES	NPYLR7 ag	NPYLR7 ag max-min
C[C@@H](NCCCc1cccc(C(F)(F)F)c1)c1cccc2ccccc12	-4.7	-11.4
Cc1cccc(-c2cc(N)n(-c3ccc(C(=O)NC4CCC(C)CC4)cc3)n2)c1 (stereo unspecified)	-4.5	-7.6
NC(N)=NC(N)=Nc1ccccc1	-3.6&1.8&-8.1	-5.1&-36.7&-13.3
Cn1c(=O)[nH]c(=O)c2c1nc(NCc1ccccc1Cl)n2Cc1ccccc1	9.4	7.2
CC(=O)N1CCN(c2cc(C)nc(SCc3cccc(C(=O)O)c3)n2)CC1	10.3	16.7
CCOC(=O)C1=C(O)/C(=C\c2ccc(OC)c(O)c2)SC1=Nc1ccc(F)cc1	-5.0	-1.9
COc1ccc(C2=NN(C(=O)CN3CCN(c4ccccc4F)CC3)C(c3ccccc3F)C2)cc1 (stereo unspecified)	-1.0	0.6
COCCCN(CC(=O)N(Cc1ccccc1)Cc1sccc1C)C(=O)Nc1ccc(Cl)c(Cl)c1	-3.5	4.8

New compounds follow.
SMILES	NPYLR7 ag	NPYLR7 ag max-min
O[C@@H]1CN(Cc2cccc(Cl)c2)CC[C@H]1N1CCN(c2ccccc2F)CC1	4.5	2.3
Cc1cc(C)c2c(=O)[nH]c(=S)[nH]c2n1	2.4	0.6
Cc1cccc(N2C(=O)/C(=C/c3ccco3)NC2=S)c1	7.7	6.3
Cc1c(-c2nccn2[C@@H]2CS(=O)(=O)C[C@H]2O)c(=O)n(-c2ccccc2)n1C	-2.8	-7.1
COc1ccc2c(c1)CCN(C(=O)c1nc(-c3cnccn3)no1)C2	-2.0	-2.6
CC(=O)Nc1ccc(OCc2ccc(Br)cc2F)cc1	-7.7	-5.5
CCN(CC)S(=O)(=O)c1cccc(C(=O)NNC(=O)NCCCl)c1	-3.0	-5.5
C#CCOCC(O)CN(Cc1cccn1C)C1CC1 (stereo unspecified)	18.6	31.2

(next part)
SMILES	NPYLR7 ag	NPYLR7 ag max-min
CCn1nc(C)c(Cn2ccnc2-c2cnc(N(C)C)s2)c1C	-1.2	-3.7
CCc1c(C)nc(-c2cccc(F)c2)nc1N1CCN(C(=O)Nc2ccccc2OC)CC1	-6.1	-3.0
Nc1cnn(Cc2ccc(Br)cc2)c1	-0.8	-2.4
CC1(C(=O)N2CCCCC2)CCN1C(=O)C1(c2ccccc2)CC1 (stereo unspecified)	8.2	15.0
CC1CN(c2ccccc2)CCN1C(=O)CCN(C)S(C)(=O)=O (stereo unspecified)	-6.1	-9.5
CN1CCn2c1nc(N1CCOCC1)nc2=O	13.5	10.2
CCNC(=O)C1(C)CCN(Cc2ccc(Cl)cc2)C1 (stereo unspecified)	4.5	5.4
C=C(C)COc1ccccc1C(=O)NCCn1[nH]c(=O)ccc1=O	-5.0	-10.1

(list continues)
SMILES	NPYLR7 ag	NPYLR7 ag max-min
Cc1nc2ccc(C(=O)N(C)C3CCN(Cc4cc5ccccc5o4)C3)cc2nc1C (stereo unspecified)	6.5	7.0
O=C(NC1CC2CCC(C1)N2CCc1ccccc1)c1cccc2ccccc12 (stereo unspecified)	2.4	8.4
COc1ccc(C)cc1NC(=O)CCc1nc(-c2ccsc2)no1	10.8	9.7
CC(c1ccco1)N(C)C(=O)NCCc1csc(N2CCCC2)n1 (stereo unspecified)	3.5	-18.0
FC(F)(F)c1cccc(-c2nnn3c2nc(NC2CCCC2)c2ccccc23)c1	-8.1	-12.3
CCOC(=O)N1CCC(NCC(=O)Nc2ccc(N(C)C(C)=O)cc2)CC1	-1.4	-6.2
CN(C)CCC1CN(C(=O)CCc2cccs2)CCO1 (stereo unspecified)	-0.3	-2.8
COc1ccc(NC(=O)CCC2CCCN(C/C=C/c3ccccc3)C2)c(C)c1 (stereo unspecified)	10.5	3.1

New compounds follow.
SMILES	NPYLR7 ag	NPYLR7 ag max-min
COc1ccc(CCNc2ncnc3c2cnn3-c2ccccc2)cc1OC	12.9	17.0
CN(CC1COCCO1)C(=O)c1ccc(OC2CCN(S(C)(=O)=O)CC2)c(Cl)c1 (stereo unspecified)	12.8	9.0
Cc1nc(C2CN(C(=O)C3CC3c3cnn(C)c3)CCO2)n[nH]1 (stereo unspecified)	0.8	-0.4
COc1ccc(NC(=O)C(=O)c2ccc(C3CCCCC3)cc2)cc1	-1.5	-11.9
Cc1nc2scc(C)n2c(=O)c1NC(=O)c1c(F)cccc1F	11.9	1.2
NC(=O)C1Cc2ccccc2N1C(=O)c1ccccc1 (stereo unspecified)	-5.6	-9.4
Cc1cccc(NS(=O)(=O)c2ccc(C(C)C)cc2)n1	2.4	2.2
O=C(NCCC1CCCO1)c1cnc(OCC(F)(F)F)c(Cl)c1 (stereo unspecified)	-5.0	-6.8

Going on with the list:
SMILES	NPYLR7 ag	NPYLR7 ag max-min
OCc1ccc(CN2CCC(c3cc(-c4ccccc4Cl)n[nH]3)CC2)o1	33.3	17.9
c1ccc(-c2ncn(Cc3ccc4c(c3)OCCCO4)c2C2CCOC2)cc1 (stereo unspecified)	18.2	9.5
COc1ccc(NC(=O)c2cnn(-c3cccc(C)c3)c2C)cn1	28.1	24.2
O=C1Nc2c(c(-c3ccccc3)n[nH]c2=O)C(c2ccccc2)N1 (stereo unspecified)	5.4	6.0
Cc1cccnc1CNC(=O)CC(c1cccc(O)c1)c1ccccc1Cl (stereo unspecified)	6.9	3.1
CCOC(=O)Cn1c2c(sc1=O)C1c3cc(Br)ccc3OCC1CS2 (stereo unspecified)	18.7	10.4
NC(=O)C1CCN(c2ccc3cccc(OCc4ccccc4Cl)c3n2)CC1	5.6	5.0
O=C(c1ccccc1C(F)(F)F)N1CCN(c2nc3nccc(-c4ccc(N5CCOCC5)cc4)n3n2)CC1	5.1	-0.4

In another format: results already given.
Below each compound: NPYLR7 ag, NPYLR7 ag max-min
- c1ccc(-c2ncn(Cc3ccc4c(c3)OCCCO4)c2C2CCOC2)cc1 (stereo unspecified)
→ 18.2, 9.5
- COc1ccc(NC(=O)c2cnn(-c3cccc(C)c3)c2C)cn1
→ 28.1, 24.2
- O=C1Nc2c(c(-c3ccccc3)n[nH]c2=O)C(c2ccccc2)N1 (stereo unspecified)
→ 5.4, 6.0
- OCc1ccc(CN2CCC(c3cc(-c4ccccc4Cl)n[nH]3)CC2)o1
→ 33.3, 17.9
- Cc1cccnc1CNC(=O)CC(c1cccc(O)c1)c1ccccc1Cl (stereo unspecified)
→ 6.9, 3.1
- NC(=O)C1CCN(c2ccc3cccc(OCc4ccccc4Cl)c3n2)CC1
→ 5.6, 5.0
- O=C(c1ccccc1C(F)(F)F)N1CCN(c2nc3nccc(-c4ccc(N5CCOCC5)cc4)n3n2)CC1
→ 5.1, -0.4

Later entries
SMILES	NPYLR7 ag	NPYLR7 ag max-min
CCc1nc2n(n1)C(=O)C(C(c1ccc(C)cc1)N1CC(C)OC(C)C1)S2 (stereo unspecified)	-7.0	-12.1
Cn1nc(C(=O)N2CCCN(Cc3ccc(C(F)(F)F)cc3)CC2)c2ccccc2c1=O	3.5	-0.7
COc1ccc(C2CC(c3cccc(C)c3)=NN2C(=O)CN2CCOCC2)cc1 (stereo unspecified)	0.0	10.1
Cn1cc(C(=O)N2CC[C@@H](N3CCN(c4ccccc4F)CC3)[C@H](O)C2)c2ccccc21	3.2	-2.2
O=C(NC1CCc2ccccc21)c1cc(COc2cncc(Cl)c2)on1 (stereo unspecified)	-2.3	-3.9
CNC(=O)c1ccc(CN(C)C(=O)/C=C/c2nc3ccccc3o2)cc1	14.4	12.6
O=C(CSc1nc(=O)n(CCO)c2c1CCCC2)N1CCCC1	-10.6	-19.6
CN(C)CCNc1nc(S(=O)(=O)c2ccccc2)c(Cl)s1	13.3	12.3

Next results follow.
SMILES	NPYLR7 ag	NPYLR7 ag max-min
Cc1nc(C)c(Cc2ccccc2Cl)c(N2CCN(C(=O)c3ccccc3F)CC2)n1	1.3	10.8
C=CCN1C(=O)C(O)(c2c(C)nn(CCC#N)c2N)c2ccccc21 (stereo unspecified)	5.5	8.8
Cn1ccn2ncc(C(=O)NC3CCCN(C(=O)c4cccs4)C3)c12 (stereo unspecified)	5.2	0.2
COc1ccc(OC)c(-c2nc(Cn3ccnc3C(C)C)c(C)o2)c1	6.4	4.3
O=S(=O)(NCC1CCN(Cc2ccccn2)C1)c1cccc(F)c1 (stereo unspecified)	1.1	0.6
Cc1ccsc1CN(C)C(=O)c1cn(CCCc2ccccc2)nn1	-0.1	-4.5
Cc1nc2c(=O)n(CC(=O)N(c3ccccc3)C(C)C)nc(-c3ccco3)c2s1	2.4	0.1
O=C(NCCCn1ccnc1)[C@@]1(OCc2ccccc2F)CC(OCc2cccc(Cl)c2)[C@H](O)[C@H](O)C1 (stereo partly specified)	-9.7	1.8
CCN1C(=O)SC(Nc2ccccc2)C1=O (stereo unspecified)	4.6	4.5
CC(=O)Nc1ccc(-c2nnc3n(CCc4ccccc4)c(=O)c4ccccc4n23)cc1	-3.5	-5.5
O=C(Cc1ccc(N2CCNC2=O)cc1)N1CCCC2(CCNC2)C1 (stereo unspecified)	-4.9	-5.8
